# HPGD inh = qHTS Assay for Inhibitors of HPGD (15-Hydroxyprostaglandin Dehydrogenase) | 15-hydroxyprostaglandin dehydrogenase [NAD(+)] (Homo sapiens), P15428 | purified HPGD, NADH fluorescence kinetic, PGE2 substrate | Potency, µM, without a hit: at the highest dose activity change, negative = inhibition, usual class: inhibitors | actives 4.3% (n = 150,000) | AID 894, 2007; active = well fitted inhibition curve with a large enough effect (not every such curve was filed as active); inconclusive = small, poorly fitted or top-dose-only effect, or another doubt; inactive = no such curve, though single readings can be large or run the other way;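 also: top concentration of the series not given in the record; plate controls included wells without enzyme; inactives centre near -10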
# Target sequence (P15428 whole entry, looked up): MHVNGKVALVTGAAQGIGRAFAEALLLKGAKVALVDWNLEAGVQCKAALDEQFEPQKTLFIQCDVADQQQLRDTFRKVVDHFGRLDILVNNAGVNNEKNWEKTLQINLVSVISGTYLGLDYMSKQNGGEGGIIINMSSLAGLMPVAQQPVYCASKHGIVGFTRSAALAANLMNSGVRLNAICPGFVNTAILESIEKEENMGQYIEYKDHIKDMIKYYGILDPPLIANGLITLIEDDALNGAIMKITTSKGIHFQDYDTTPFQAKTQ
#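 20 nM HPGD preincubated 15 min at room temperature with compound in 50 mM Tris-HCl pH 8, 0.01% Tween 20. Started with 1 mM NAD+ and 30 uM prostaglandin E2; NADH fluorescence (360/450 nm) read 5 times over 30-s intervals, last minus first.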
# Active calls of the source: *; ? = inconclusive; & = joins results of further samples. % is scaled to controls: 0 for no effect and ±100 for the full control effect; potency is read from the fitted curve at half-maximal effect. Only part of the results is shown. The share of hits here may be higher or lower than overall.
SMILES,HPGD inh
CCC(C)N1C(=O)/C(=C\c2ccc(N3CCCCCC3)cc2)C(=O)NC1=S (stereo not given),20µM*
CCN1CCN(C(=O)COc2ccc3c(c2)C(=O)CC2(CCN(C(C)=O)CC2)O3)CC1,?
CC1SC2(CN3CCC2CC3)NC1=O (stereo not given),-7%
CCCCCCOC(=O)c1ccccc1N,-18%
CCOC(=O)c1c(C)c(C(=O)N2CCC3(CC2)OCCO3)c(C)n1CC,-13%
Cc1cc(C)c(NC2=NCCCS2)c(C)c1,-15%
CN(C)C(=O)Oc1ccc(-c2cn3cc(Cl)ccc3n2)cc1,-25%
CCOC(=O)CC1=C(C(=O)OCC)C2(C(=O)N1)C(C(=O)OC)=C(N)Oc1ccccc12 (stereo not given),-4%
C=CCN1C[C@H](C)N([C@H](c2ccc(C(=O)N(CC)CC)cc2)c2cccc(OC)c2)C[C@H]1C,-3%
CN1CCN(c2ccccc2N)CC1,-6%
Cc1ccc(N2C(=O)NC(=O)/C(=C\C=C\c3ccco3)C2=O)cc1C,10µM*
CN1C(=O)N(C)C(=O)C2(Cc3cc([N+](=O)[O-])ccc3N(C)C2c2ccccc2)C1=O (stereo not given),-3%
CN(C)CCCN=Cc1c(O)n(CCc2ccc(F)cc2)c(=O)[nH]c1=O,-4%
Cc1nc2cc(-c3cccc(F)c3)nn2c(C)c1CCC(=O)N1CCC2(CC1)OCCO2,-24%
CC(=C1C(=O)c2ccccc2C1=O)N1CCN(CCN=Cc2c(O)n(C)c(=O)n(C)c2=O)CC1,-27%
O=c1ccc2[nH]cc(C3=CCNCC3)c2[nH]1,?
Cc1c(C(c2ccc(F)cc2)c2c(O)c3ccccc3oc2=O)c(=O)n(-c2ccccc2)n1C (stereo not given),-5%
O=CN1CCCCC1C1CC[C@H]2CCCCN2C1 (stereo not given in full),-2%
CC(=O)c1c(O)c(C)c(O)c(Cc2c(O)c3c(c(C(=O)/C=C/c4ccccc4)c2O)OC(C)(C)C=C3)c1O,-15%&-19%
BrCCc1ccccc1,-12%
C=CC1CN2CCC1CC2C(OC(=O)OCC)c1ccnc2ccc(OC)cc12 (stereo not given),0%
COc1ccc2c(c1OC)CN1CCc3cc4c(cc3[C@H]1C2)OCO4,-6%
COC(=O)c1ccc2ccn(CC(=O)NC(C)C)c2c1,?
CCC(C)NS(=O)(=O)c1ccc(OCC(=O)N2CCN(CC)CC2)cc1 (stereo not given),-9%
CCCC1COC(Cn2cncn2)(c2ccc(Cl)cc2Cl)O1 (stereo not given),-11%
CC1OC(O[C@@H]2C(O)CC(O[C@@H]3C(O)C[C@@H](OC4CC[C@]5(C)[C@H](CC[C@H]6[C@@H]5CC[C@]5(C)C(C7=CC(=O)OC7)C(O)C[C@@]65O)C4)OC3C)OC2C)CC(O)C1O (stereo not given in full),-6%
O=C=NC1CCCCC1,-4%&-9%
CCCCC/C=C\C/C=C\C/C=C\C/C=C\CCCCCC(=O)NCCO,-6%&-8%
COC(=O)C(N)CCCN=C(N)N[N+](=O)[O-] (stereo not given),-5%

# Grouped by structure: those above with nitrogen in an aromatic ring (10)
SMILES,HPGD inh
CCOC(=O)c1c(C)c(C(=O)N2CCC3(CC2)OCCO3)c(C)n1CC,-13%
CN(C)C(=O)Oc1ccc(-c2cn3cc(Cl)ccc3n2)cc1,-25%
CN(C)CCCN=Cc1c(O)n(CCc2ccc(F)cc2)c(=O)[nH]c1=O,-4%
Cc1nc2cc(-c3cccc(F)c3)nn2c(C)c1CCC(=O)N1CCC2(CC1)OCCO2,-24%
CC(=C1C(=O)c2ccccc2C1=O)N1CCN(CCN=Cc2c(O)n(C)c(=O)n(C)c2=O)CC1,-27%
O=c1ccc2[nH]cc(C3=CCNCC3)c2[nH]1,?
Cc1c(C(c2ccc(F)cc2)c2c(O)c3ccccc3oc2=O)c(=O)n(-c2ccccc2)n1C (stereo not given),-5%
C=CC1CN2CCC1CC2C(OC(=O)OCC)c1ccnc2ccc(OC)cc12 (stereo not given),0%
COC(=O)c1ccc2ccn(CC(=O)NC(C)C)c2c1,?
CCCC1COC(Cn2cncn2)(c2ccc(Cl)cc2Cl)O1 (stereo not given),-11%

# Three compounds from above, sorted by heavy-atom count, smallest number first.
SMILES,HPGD inh
COc1ccc2c(c1OC)CN1CCc3cc4c(cc3[C@H]1C2)OCO4,-6%
CCCCC/C=C\C/C=C\C/C=C\C/C=C\CCCCCC(=O)NCCO,-6%&-8%
C=CC1CN2CCC1CC2C(OC(=O)OCC)c1ccnc2ccc(OC)cc12 (stereo not given),0%

# Source: PubChem
